AID504770: growth inhibitors of E. coli YBA685 in a screen for V. cholerae RctB (chromosome II replication) inhibitors | E. coli YBA685 rctB-dependent plasmid, OD600 growth, 3 h; hits give low values | z-score (test concentration not listed) | hit rate 0.27% among 130,000;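 active = z-score under -2 on both plates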;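 also: wells of about 30 µL received 100 nL stock; score is relative to mean and SD of the test wells; the first replicate is given; strong numbers were not always called active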
Ba CapD inh: blocks the Bacillus anthracis CapD enzyme; hit rate 0.23% among 140,000; purified CapD enzyme, fluorescence intensity read-out; hits give low values; some hits fall short of the stated cut; z-score (concentration not given with the values);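 active = z-score under -4 in either of two replicates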;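 also: stock transfer was 100 nL into about 40 µL; score is relative to mean and spread of the plate; one replicate is shown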
* marks the source's active call; other numbers are inactive results; nt = not tested or not shown; & = joins results of further samples. This is a subset; the hit share may differ from the screen's.

SMILES	AID504770	Ba CapD inh
CC(C)(C)C(=O)CSc1nc(SCC(=O)C(C)(C)C)c2ccccc2n1	-0.55	3.12
CC12CCC(C1)C(C)(C)/C2=N\O (centres undefined)	0.45	-0.34
CCOc1ccccc1N(C)S(=O)(=O)c1cccc2cccnc12	2.6	-1.04
CCCCC(C(=O)Nc1cccc(Cl)c1)N1C(=O)C2C3c4ccccc4C(c4ccccc43)C2C1=O (centres undefined)	nt	-0.245
Cc1cc(NC(=O)CSCC(=O)N=c2sc3ccccc3n2C)no1	0.15	nt
CC(=O)Nc1ccc2nc(NC(=O)c3cccc(F)c3)sc2c1	-1.45	5.28
COC(=O)c1ccc2c(c1)NC(=O)c1ccccc1S2	-0.7	-0.025
N#Cc1c(-n2ncnc2-c2ccc3c(c2)OCO3)sc2c1CCCCC2	-0.55	-0.915
COc1ccc(C(=O)N2CCc3c([nH]c4ccccc34)C2c2ccc([N+](=O)[O-])cc2)cc1 (centres undefined)	nt	0.055
Cc1ccc(C2=C[N+](=O)C(C)(C)C(C)(C)N2[O-])cc1	1.35	-3.14

Part of the list above, in markdown.
| smiles | AID504770 | Ba CapD inh |
| --- | --- | --- |
| CCOc1ccccc1N(C)S(=O)(=O)c1cccc2cccnc12 | 2.6 | -1.04 |
| Cc1cc(NC(=O)CSCC(=O)N=c2sc3ccccc3n2C)no1 | 0.15 | nt |
| N#Cc1c(-n2ncnc2-c2ccc3c(c2)OCO3)sc2c1CCCCC2 | -0.55 | -0.915 |
| COC(=O)c1ccc2c(c1)NC(=O)c1ccccc1S2 | -0.7 | -0.025 |

The listing continues.
SMILES	AID504770	Ba CapD inh
Cc1ccc2c(c1)C1(OCCCO1)C(=O)N2CC(=O)O	nt	-0.435
Cc1ccc(C)n1-c1ccc(C2(O)CCSc3ccccc32)cc1 (centres undefined)	-0.65	-0.045
CN(C)c1cc(N2CCCC2)c(F)cc1[N+](=O)[O-]	nt	-1.77
Oc1ccc(-c2nc(-c3c[nH]c4ccccc34)cs2)cc1	0.25	34.9
COc1ccc(NC(=O)c2cc3nc(-c4ccc(OC)c(OC)c4)cc(C(F)(F)F)n3n2)cc1	nt	-1.25
COc1c(F)c(F)c(C(=O)Nc2ccc(N3CCN(S(C)(=O)=O)CC3)cc2)c(F)c1F	0.7	-0.095
Cc1cc(C)nc(SCCN2CCCC2)n1	-0.35	nt
O=C(OCCC1CCCC1)N1CCc2c([nH]c3ccccc23)C1	nt	-0.39
Cc1cc(NC(=O)Nc2ccc(Cl)cc2)n(C(C)(C)C)n1	-1.2	0.375
C=CCn1c(SCC(=O)Nc2sc3c(c2C(=O)OC)CCC3)nnc1-c1cccnc1	-0.3	nt
CN(C)/C=C(/C(=O)c1ccc(F)cc1)S(=O)(=O)c1ccc(F)cc1	nt	-1.48
COc1ccc(CN2CCN(CC(O)Cn3c4ccccc4c4ccccc43)CC2)cc1 (centres undefined)	nt	0.165
COc1cccc(Nc2nc3c(S(=O)(=O)c4ccccc4)nnn3c3ccsc23)c1	-1.1	1.71
CCOC(=O)C1=C(C)NC(C)=C(C(=O)OCC)C1C(=O)OCN1C(=O)c2ccccc2C1=O	-0.35	nt
CC(C)c1ccc(NC(=S)NCc2ccc(C#N)cc2)cc1	-0.35	-0.785
COc1ccc(C(=O)OCC(=O)c2ccc3[nH]c(=O)[nH]c3c2)c(OC)c1	-0.4	nt
COc1ccc(N2C3=C(C(=O)CC(C)(C)C3)C(c3ccccc3)C3=C2c2ccccc2C3=O)cc1 (centres undefined)	nt	-0.22
c1ccc2c(c1)c1ccccc1c1nc(N3CCOCC3)nnc21	0.1	0.15
O=C(c1ccccn1)N1CCc2ccccc2C1	-0.7	nt
NC(=O)CCN1C(=O)c2ccccc2C1=O	-0.5	-0.56
Cc1ccc(S(=O)(=O)Nc2nc3ccccc3nc2N2CCN(c3ccccc3)CC2)cc1	-0.9	2.16
O=[N+]([O-])c1ccc(-c2ccc(-c3[nH]c(-c4cccc(O)c4)nc3-c3ccccc3)cc2)cc1	nt	24.3
O=C(Nn1c(-c2cccs2)nc2ccccc2c1=O)c1cc2cc(Br)ccc2oc1=O	nt	-0.195
Cc1ccc([N+](=O)[O-])c2c1NC(c1ccc(Cl)cc1Cl)C1CC=CC21 (centres undefined)	nt	-0.155
Cc1ccc(Cn2nc(C)c(/C=C/C(=O)OCc3nc4ccccc4c(=O)n3CC#N)c2C)cc1	-0.5	nt
C=CCn1c(SCC(=O)Nc2ccccc2F)nc2sc3c(c2c1=O)CCC3	nt	-0.17
CN(C)c1ccc(/C=C2/CCC/C(=C\c3ccc(N(C)C)cc3)C2=O)cc1	1	nt
NC(=O)c1cccnc1-c1nc2ccccc2s1	1.65	4.59
COC(=O)CSc1nnc(SCc2ccc(Cl)cc2)s1	2.05	-0.955
COc1ccccc1/C=N/OCn1nnc2ccccc2c1=O	-0.7	nt

For convenience, four of the compounds above.
SMILES	AID504770	Ba CapD inh
Cc1ccc(S(=O)(=O)Nc2nc3ccccc3nc2N2CCN(c3ccccc3)CC2)cc1	-0.9	2.16
O=[N+]([O-])c1ccc(-c2ccc(-c3[nH]c(-c4cccc(O)c4)nc3-c3ccccc3)cc2)cc1	nt	24.3
O=C(Nn1c(-c2cccs2)nc2ccccc2c1=O)c1cc2cc(Br)ccc2oc1=O	nt	-0.195
Cc1ccc([N+](=O)[O-])c2c1NC(c1ccc(Cl)cc1Cl)C1CC=CC21 (centres undefined)	nt	-0.155

Following part
SMILES	AID504770	Ba CapD inh
CCCCCCN1C(=O)C(=O)/C(=C(/O)c2ccc(C)cc2)C1c1ccc(N(C)C)cc1 (centres undefined)	nt	0.03
C[C@H]1C(=O)O[C@@H]2CCN3CC=C(COC(=O)[C@](C)(O)[C@]1(C)O)[C@H]23	0.9	-1.5&-0.11
COc1cccc(NC(=O)C(C)Sc2nc(-c3ccccc3)cc(C(F)(F)F)n2)c1 (centres undefined)	1.5	0.84
NC(=O)c1ccccc1OCC(=O)N1CCC(Cc2ccccc2)CC1	-0.25	nt
O=C(NCc1ccc(-c2csnn2)cc1)OCC1CCCN(Cc2ccccc2F)C1 (centres undefined)	nt	-0.495
COc1ccccc1NCC(C)(C)CC=C(C)C	-0.5	0.56
Cc1ccc(-n2nc3c(c2NC(=O)/C=C\c2ccccc2)CSC3)cc1	-0.9	-0.325
O=C(c1cccs1)N1CCc2sccc2C1c1ccc(Cl)cc1 (centres undefined)	nt	0.05
Nc1c(C(=O)Nc2ccc(Cl)c(Cl)c2)sc2nc3c(cc12)CCC3	nt	-0.585
O=C(NC(=S)Nc1ccc2[nH]c(=O)[nH]c2c1)c1ccccc1Br	-0.4	0.11
CCCNC(=O)C1=C(C)C(=O)OC12CCCCC2	-0.6	0.52
O=C(O)CCCC(=O)NC1CCCc2ccccc21 (centres undefined)	1.45	0.79
CN1CCc2nc(NC(=O)Cc3coc4cc5c(cc34)CCC5)sc2C1	1.05	nt
Cc1cc2nccc(-c3ccccc3OCc3ccc(Cl)cc3)n2n1	nt	4.39
COc1cc2ncnc(N3CCCC3)c2cc1OC	0.4	-0.885
CC1CC(C)CN(c2ccc(NS(=O)(=O)c3ccccc3)cc2C(=O)O)C1 (centres undefined)	0.25	0.05
O=C(CSc1nnc(CNC(=O)c2ccco2)o1)NCc1ccccc1	0.5	0.33
O=C(c1nc2ncccn2n1)N1CCc2ccccc2C1	0	-0.565
Cc1ccc(CN2C(=O)CN(C3CCCC3)C(=O)C2c2ccc(F)cc2)cc1 (centres undefined)	-1.1	-0.585
CN(C)S(=O)(=O)c1ccc(C(=O)N2CCN(C(=O)c3ccccc3)CC2)cc1	0.1	nt
Cc1cccnc1NC(=O)C(F)(F)C(F)(F)C(F)(F)F	1.95	nt
CC1CCCCN1c1nnc(NC(=O)NC2CCCC2)s1 (centres undefined)	0.3	0.2
COCc1c(CSSCc2cnc(C)c(O)c2COC)cnc(C)c1O	-0.45	nt
Cc1cn2c(nc3c2c(=O)n(C)c(=O)n3C)o1	-0.85	nt
CCc1cc2cc(C(=O)O)sc2s1	-0.1	0.15
CCS(=O)(=O)N1Cc2ccccc2CC1C(=O)N=c1sc2ccccc2n1C (centres undefined)	-0.85	nt
CSc1ccccc1N=C(N)N=C(N)N	nt	0.215
NC1CCOc2ccccc21 (centres undefined)	0.1	nt
C1=C(N2CCOCC2)/C(=C/c2nc3ccccc3[nH]2)CC1	-0.5	0.09
COc1cc(C2Nc3ccc4ccccc4c3C3=C2C(=O)CC(C)(C)C3)ccc1OCC#N (centres undefined)	nt	64.4
c1ccc(N=C(CSc2nncs2)Nc2ccccc2)cc1	0	nt
CCC1CCCCN1CCCNc1cnnc2c(Cl)cccc12 (centres undefined)	-0.4	-1.95
Cc1nn(-c2ccccc2)c(C)c1/C=N/NC(=O)c1ccc2nonc2c1	nt	0.26
COC(=O)C1=CN(Cc2ccc(OC)c(OC)c2)C=C(C(=O)OC)C1c1cccc(OCc2ccccc2)c1	nt	58.2
CCN(CC)c1nc(C)nc2sc(C(=O)Nc3cc(C)on3)c(C)c12	nt	8.51
O=C(CC(c1ccccc1)(c1ccccc1)c1ccccc1)NNC(=O)c1ccc(CSc2ccc(C(F)(F)F)cn2)o1	nt	-0.625
Cc1nc(O)c(C(c2ccccc2F)C(C#N)C#N)[nH]1 (centres undefined)	-1.1	-0.745
CC(=O)Nc1ccc(N/C=C/C(=O)C(C)(C)C)cc1	1.25	-2.59
Cc1cc(N)nn1C(=O)CSc1nc(NCC2CCCO2)c2ccccc2n1 (centres undefined)	nt	0.47
O=C1CCN(C(=O)CCCSc2nc3ccccc3[nH]2)CC1	-0.7	nt
Cc1nc2ccccc2c(=O)n1NCc1ccccc1Br	-1.45	-0.02
CC(C)=CCOc1ccc2c(c1)oc(=O)c1ccccc12	1.4	18.6
O=C(COc1ccc(-n2cnnn2)cc1)N1CCCc2ccccc21	0.15	nt
CCCCCCCOc1ccc(C(=O)Oc2ccc(C(C)=O)cc2)cc1	nt	-0.515
COc1cc(CCC(=O)O)cc(OC)c1OC	nt	0.195
N#Cc1ccc(C#CCOC(=O)c2cccs2)cc1	-0.8	-0.12
CCn1cc(CCC(=O)NC2CCCC(C)C2C)c2ccccc21 (centres undefined)	1.05	-0.195
CCCCn1c(NCCO)nc2ccccc21	-0.9	-0.095
C#CCOC(=O)Nc1cccn(Cc2ccc(Cl)c(Cl)c2)c1=O	nt	7.9
Cn1ccnc1SCc1csc(Nc2ccccc2)n1	0.2	nt

Later entries
SMILES	AID504770	Ba CapD inh
Cc1ccccc1Cn1c(-c2ccc[nH]c2=O)nc2cc(Cl)c(Cl)cc21	nt	70
O=[N+]([O-])/C=C/c1ccc2c(c1)OCO2	nt	-0.71
CCSc1nc(=O)n(Cc2cccnc2)c2c1CCC2	-0.65	nt
COc1ccc(-c2nc(-c3ccc(NC(=O)c4ccc(C)c([N+](=O)[O-])c4)cc3)no2)cc1OC	nt	-0.24
CCn1c(-c2cccc(C)c2)nc2ccccc21	-1.3	-0.28
Cc1ccc(C(=O)c2oc3ccccc3c2N)cc1	nt	0.725
CC1=NN(c2ccccc2)C(=O)/C1=C\c1ccc(Oc2ccc([N+](=O)[O-])cc2[N+](=O)[O-])cc1	nt	-0.225
O=C(c1cc2ccc3cccnc3c2[nH]1)N1CCN(Cc2ccccc2)CC1	-0.2	0.075
CN(C)c1ccc(CN2CCCC2)cc1	-0.85	0.425
O=C(NCCC1=CCCCC1)C1CCN(c2nc3ccccc3o2)CC1	-1.05	nt

Record cards, from the list above. Order of values: AID504770, Ba CapD inh
Shown for Cc1ccc(CN2C(=O)CN(C3CCCC3)C(=O)C2c2ccc(F)cc2)cc1 (centres undefined) = -1.1, -0.585
Shown for C1=C(N2CCOCC2)/C(=C/c2nc3ccccc3[nH]2)CC1 = -0.5, 0.09

Following part.
SMILES	AID504770	Ba CapD inh
O=C1C=C(c2cccs2)C[C@H](c2ccccc2)[C@H]1n1cnc([N+](=O)[O-])n1	nt	6.12
CS(=O)(=O)c1ccc(-c2cccc(NC(=O)c3ccc4c(c3)OCO4)c2)nn1	0.85	nt
CCCCNC(=O)N1CCN(C(c2ccccc2)c2ccccc2)CC1	1.45	-0.135
Cn1c(N)c(C(=O)CN2CCN(S(=O)(=O)c3ccccc3C(F)(F)F)CC2)c(=O)n(C)c1=O	-0.8	nt
Cc1cc(C)n(-c2nc3ccccc3nc2N2CCN(C(=O)c3ccccc3Br)CC2)n1	-0.2	1.08
O=C(c1ccc2c(c1)N(Cc1ccccc1)C(=O)c1ccccc1S2(=O)=O)N1CCCCC1	-0.3	1.71
O=C1Cc2ccccc2C(=O)N1Cc1ccccn1	0.2	nt
N#Cc1ccc(OCC(=O)N2CCN(c3ccc(O)cc3)CC2)cc1	-0.1	nt
COCCN1Cc2cccc(C(=O)NC3CCCC3)c2C1=O	0.05	-0.19
O=S(=O)(c1ccc(Br)s1)N1CCN(c2ccccc2)CC1	0.5	-0.595
O=C(Cn1c(=O)oc2ccccc21)NCCc1ccco1	-1.05	0.35
NC(=O)c1ncn([C@@H]2O[C@H](CO)[C@@H](O)[C@H]2O)n1	nt	0.205
CC(=O)Oc1ccc(-n2c(C)cc(/C=C3\C(=O)NC(=O)N(c4ccccc4)C3=O)c2C)cc1	nt	-0.355
Brc1ccc(N=C(c2ccccc2)c2ccncc2)cc1	-0.5	-1.08
CCOC(=O)C1=C(C)N=c2s/c(=C\c3cc([N+](=O)[O-])ccc3N3CCOCC3)c(=O)n2C1c1cccc(OC)c1 (centres undefined)	nt	-0.215
CCC(C)NS(=O)(=O)c1ccc2[nH]c3c(c2c1)CCCC3 (centres undefined)	-0.5	0.11
COc1ccc(-c2noc(CNC(=O)C34CC5CC(CC(C5)C3)C4)n2)cc1	0.45	-0.49
Cc1ccc(S(=O)(=O)C2(S(=O)(=O)c3ccc(C)cc3)CCCC2)cc1	-0.2	-0.13
CCOc1ccccc1C(=O)Nc1c(O)c2ccccc2oc1=O	1	-0.19
CCc1cc(=O)[nH]c(=S)[nH]1	nt	-0.08
S=C(NCC(c1cccnc1)N1CCOCC1)Nc1ccccc1 (centres undefined)	0	0.585

From PubChem
